Screening results deposited in PubChem BioAssay by several laboratories.
LANA-H2B inh: blocks KSHV LANA binding to histone H2A/H2B; Q9QR71; cell-free LANA-H2A/H2B peptide, fluorescence polarization; inhibition, % (test concentration not listed); hit rate 0.6% among 320,000; AID 2629; in the data active means inhibition mostly above about 10%, no sharp cut-off; inactive means mostly below about 6.7%;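 further: stock transfer was 7.5 nL into about 10 µL; 0% = median of vehicle wells and 100% = median of positive control wells; one replicate is shown; the record names a cut of 25% in any replicate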
UCH37 inh: human UCH37 deubiquitinating enzyme inhibition; Q9Y5K5; purified proteasome/UCH37, Ub-AMC cleavage fluorescence; inhibition, % (test concentration not listed); hit rate 0.33% among 330,000;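 active means mean of two replicates above 20%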;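 further: 0% = compound-free wells with enzyme and 100% = wells lacking proteasome; stock transfer was 100 nL into about 20 µL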
Target sequence (Q9Y5K5 whole entry, looked up): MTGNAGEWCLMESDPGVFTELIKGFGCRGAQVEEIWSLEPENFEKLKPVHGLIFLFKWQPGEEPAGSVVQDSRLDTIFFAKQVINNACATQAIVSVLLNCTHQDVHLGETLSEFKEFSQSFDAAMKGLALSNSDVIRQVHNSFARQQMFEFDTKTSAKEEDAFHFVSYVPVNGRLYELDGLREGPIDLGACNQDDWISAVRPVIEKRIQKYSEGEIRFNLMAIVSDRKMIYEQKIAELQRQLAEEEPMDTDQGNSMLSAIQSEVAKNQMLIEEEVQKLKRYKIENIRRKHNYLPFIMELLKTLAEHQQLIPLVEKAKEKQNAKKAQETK
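System: Proteasome-associated human UCH37 deubiquitinase; Input: 0.15 nM proteasome in added enzyme buffer; Also added: Ub-AMC substrate from 1 µM stock; Incubation: 30 min compound-proteasome preincubation then 25 min substrate reaction, room temperature; Detection: fluorescence, ex 355 nm, em 460 nm; Read-out: % inhibition of Ub-AMC cleavage fluorescence; Benchmarks: no-proteasome and no-compound wells.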
B2AR ag: human beta-2 adrenergic receptor agonism by FAP. P07550. Am2.2-beta2AR cells, FAP receptor internalization, flow cytometry; reference of the scale not given here. response, % (no concentration beside the values). hit rate 0.43% among 340,000;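 active means response above a set limit, near 3 SD of response in nonfluorescent compounds, cut at about 42% in these data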;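 further: stock transfer was 100 nL into about 11 µL; a reference agonist was the positive control; negative values mostly stem from fluorescent compounds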
FGF22 binding: FGF22 (human) thermal shift binding; recombinant FGF22 thermal shift, SYPRO orange fluorescence; percent of sucrose octasulfate shift, DMSO zero; calls only at 9.99 µM; hit rate 1.5% among 340,000;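 active means melting point raised past a set limit in the mean and every replicate; three in four hits are not shown here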
ALR inh: inhibitors of human sulfhydryl oxidase ALR | purified ALR, DTT oxidation, H2O2 HRP-luminol luminescence | P55789 | hit rate 3.8% among 290,000 | inhibition, % (concentration not given with the values);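 active means mean and each replicate at 75% or more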;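 further: stock transfer was 7.5 nL into about 7.5 µL; 0% = neutral wells and 100% = wells with inactivated enzyme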
Target sequence (P55789 whole entry, looked up): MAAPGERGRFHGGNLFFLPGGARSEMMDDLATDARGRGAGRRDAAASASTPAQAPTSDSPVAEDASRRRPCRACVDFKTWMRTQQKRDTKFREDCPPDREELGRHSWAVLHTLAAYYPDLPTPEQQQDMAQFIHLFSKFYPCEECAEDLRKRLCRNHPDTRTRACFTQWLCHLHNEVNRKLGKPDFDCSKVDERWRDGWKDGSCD
HNF4A DNA FP: change in binding of human HNF4 alpha to DNA. P41235. HNF4a-FITC DNA binding, fluorescence polarization, 1 h. activity change, % at 10 µM. hit rate 0.3% among 360,000; in the data active means activity change above about 30%, passing the limit was not always enough;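 further: controls were the assay level and a saturating level of protein; the project sought stronger binding though the title names inhibitors; some compounds called inactive have numbers as strong as hits; positive values seem to mean higher polarization but the record does not say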
Target sequence (P41235 whole entry, looked up): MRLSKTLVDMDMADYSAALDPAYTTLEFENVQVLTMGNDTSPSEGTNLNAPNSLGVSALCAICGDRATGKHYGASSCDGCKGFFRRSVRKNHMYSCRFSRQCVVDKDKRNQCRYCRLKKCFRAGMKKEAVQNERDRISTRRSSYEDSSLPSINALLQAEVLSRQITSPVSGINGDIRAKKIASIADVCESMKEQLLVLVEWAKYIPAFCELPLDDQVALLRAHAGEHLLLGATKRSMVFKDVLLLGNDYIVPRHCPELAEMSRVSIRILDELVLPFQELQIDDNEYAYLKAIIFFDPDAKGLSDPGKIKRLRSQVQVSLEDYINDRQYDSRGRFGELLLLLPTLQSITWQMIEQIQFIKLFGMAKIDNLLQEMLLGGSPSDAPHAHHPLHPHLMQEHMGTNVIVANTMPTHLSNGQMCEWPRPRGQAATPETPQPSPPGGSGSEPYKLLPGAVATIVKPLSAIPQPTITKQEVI
E coli growth: inhibitors of Escherichia coli growth. OD600 absorbance (test concentration not listed). hit rate 0.21% among 330,000. AID 1053175. OD600, 23 h; hits give low values;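 active means OD600 absorbance below the run mean of sample wells minus 3.6 SD, in any replicate, cut at about 0.56 in these data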;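 further: stock transfer was 300 nL into about 60 µL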
Numbers without * were called inactive. An excerpt, so the mix of outcomes need not match the whole.

`COc1ccccc1C(=O)NNC(=O)CCN1C(=O)/C(=C\c2ccccc2)SC1=S` gave LANA-H2B inh 7.6, UCH37 inh 6.9, B2AR ag -8.0, FGF22 binding inactive, ALR inh -4.8, HNF4A DNA FP -2.2 and E coli growth 0.665.
For Cc1ccccc1C(=O)N1CCN(C(c2ccccc2)c2ccccc2)CC1 the results were LANA-H2B inh -5.0, UCH37 inh 6.3, B2AR ag 6.5, FGF22 binding inactive, ALR inh -0.5, HNF4A DNA FP 1.5 and E coli growth 0.626.
`O=c1oc2ccccc2cc1-c1nnc(-c2cccc(Br)c2)o1` gave LANA-H2B inh 4.0, UCH37 inh -18.1, B2AR ag -16.1, ALR inh -3.0, HNF4A DNA FP -1.4 and E coli growth 0.731.
Screening O=C(CCC(=O)NNC(=O)Nc1ccc(Cl)cc1)NCc1ccccc1 returned LANA-H2B inh -2.6, UCH37 inh 2.1, B2AR ag 0.7, FGF22 binding inactive, ALR inh 8.1, HNF4A DNA FP -4.4 and E coli growth 0.711.
For O=[N+]([O-])c1ccc2nc(SCc3cn4cc(Cl)ccc4n3)[nH]c2c1 the results were LANA-H2B inh 0.7, UCH37 inh 4.8, B2AR ag -9.2, ALR inh -14.1, HNF4A DNA FP -4.7 and E coli growth 0.726.
`CCNc1nc(NC(C)CC)nc(Oc2ccc(OCC)nn2)n1` (stereo unspecified) gave LANA-H2B inh -5.7, UCH37 inh 3.2, B2AR ag -3.2, FGF22 binding inactive, ALR inh -11.8, HNF4A DNA FP -3.3 and E coli growth 0.725.
Screening Cc1ccc(C2(C)NC(=O)N(CC(=O)N3CCN(S(=O)(=O)c4ccccc4[N+](=O)[O-])CC3)C2=O)cc1 (stereo unspecified) returned UCH37 inh 0.4, B2AR ag 4.7, FGF22 binding inactive, HNF4A DNA FP -2.3 and E coli growth 0.713.
Screening Cc1ccc(Cn2c(CN(C)Cc3ccccc3)nc3c2c(=O)n(C)c(=O)n3C)cc1 returned LANA-H2B inh -6.8, UCH37 inh 4.9, B2AR ag -0.1, ALR inh -16.7, HNF4A DNA FP 1.9 and E coli growth 0.659.
For CC(=O)c1sc(NC(=O)CN2C(=O)NC3(CCCC3)C2=O)nc1-c1ccccc1 the results were LANA-H2B inh 18.2*, UCH37 inh 4.9, B2AR ag -16.2, FGF22 binding inactive, ALR inh 1.1, HNF4A DNA FP 1.2 and E coli growth 0.684.
Screening COc1ccc(Cl)cc1NC(=O)/C=C/C(=O)O returned LANA-H2B inh -3.5, UCH37 inh 5.0, B2AR ag -4.3, FGF22 binding inactive, ALR inh -7.7, HNF4A DNA FP -0.3 and E coli growth 0.702.
COc1cc(/C=C/C(=O)NNC(=O)c2cccc(S(=O)(=O)N(C)C)c2)cc(OC)c1OC was read as UCH37 inh -1.1, B2AR ag 5.4, HNF4A DNA FP 0.8 and E coli growth 0.659.
For CCc1nn(CC(=O)NCCN2CCN(C)CC2)c(=O)c2cc3occc3n12 the results were LANA-H2B inh -6.2, UCH37 inh -1.3, B2AR ag -3.9, ALR inh -6.8, HNF4A DNA FP 0.5 and E coli growth 0.746.
`O=c1cc(O)c(-c2ccccc2)c(Cl)[nH]1` gave LANA-H2B inh 3.2, UCH37 inh -2.3, B2AR ag 7.3, ALR inh 11.9, HNF4A DNA FP 5.8 and E coli growth 0.726.
COc1ccc(C(c2c(O)nc(SC)n(C)c2=O)c2c(O)nc(SC)n(C)c2=O)cc1O was read as LANA-H2B inh -1.3, UCH37 inh -0.2, B2AR ag 0.5, FGF22 binding inactive, ALR inh 58.0, HNF4A DNA FP -1.1 and E coli growth 0.666.
Screening CN(Cc1ccccc1F)c1ncnc2sccc12 returned LANA-H2B inh 1.5, UCH37 inh -0.8, B2AR ag -1.9, FGF22 binding inactive, ALR inh -28.9, HNF4A DNA FP 2.3 and E coli growth 0.68.
`COC(=O)CS(=O)(=O)c1ccc(C)cc1` gave LANA-H2B inh -3.5, UCH37 inh -3.8, B2AR ag 5.2, FGF22 binding inactive, ALR inh -9.0, HNF4A DNA FP 1.8 and E coli growth 0.657.
Screening O=C(Cc1cccs1)NCc1cccnc1 returned LANA-H2B inh -0.5, UCH37 inh 3.2, B2AR ag 3.2, ALR inh -19.8, HNF4A DNA FP 10.9 and E coli growth 0.71.
For Cc1ccc(CNS(=O)(=O)c2c(C)[nH]c(C)c2C(=O)N2CCCC2)cc1 the results were LANA-H2B inh 13.1, UCH37 inh 1.5, B2AR ag 0.9, FGF22 binding inactive, ALR inh 0.0, HNF4A DNA FP 0.2 and E coli growth 0.686.
CCCCNc1nc2ccccc2[nH]1 was read as LANA-H2B inh 2.1, UCH37 inh 2.0, B2AR ag -12.8, ALR inh 44.9, HNF4A DNA FP -0.6 and E coli growth 0.742.
For COc1ccc2cc(CCNC(=O)C(C)C)c(=O)[nH]c2c1 the results were LANA-H2B inh -2.7, UCH37 inh 0.5, B2AR ag -1.0, FGF22 binding inactive, ALR inh 29.1, HNF4A DNA FP 0.6 and E coli growth 0.715.
For O=C(NCCC1=CCCCC1)C(=O)NCC1OCCCN1S(=O)(=O)c1ccccc1 (stereo unspecified) the results were LANA-H2B inh -0.4, UCH37 inh 5.7, B2AR ag 6.2, ALR inh 2.4, HNF4A DNA FP 0.3 and E coli growth 0.71.
Screening O=C(NC1CCCC1)C(c1cccnc1)N(C(=O)c1csnn1)c1ccc(F)cc1 (stereo unspecified) returned LANA-H2B inh 5.1, UCH37 inh 2.7, B2AR ag -5.6, FGF22 binding inactive, ALR inh -13.9, HNF4A DNA FP 2.3 and E coli growth 0.643.
Screening COc1ccc(OC)c(NC(=O)COC(=O)CSc2ccc(Cl)cc2)c1 returned LANA-H2B inh 0.5, UCH37 inh -2.1, B2AR ag 1.4, ALR inh -0.7, HNF4A DNA FP -1.0 and E coli growth 0.686.
`COc1ccc(NC(=O)N2CCCC(C(=O)NCc3ccccc3F)C2)cc1` (stereo unspecified) gave LANA-H2B inh 4.3, UCH37 inh 0.4, B2AR ag 6.0, FGF22 binding inactive, ALR inh -0.6, HNF4A DNA FP -1.1 and E coli growth 0.667.
`CS(=O)(=O)c1ccc(NS(=O)(=O)c2ccc3ccccc3c2)cc1` gave LANA-H2B inh -3.2, UCH37 inh 4.2, B2AR ag -4.0, FGF22 binding inactive, ALR inh 28.6, HNF4A DNA FP 4.0 and E coli growth 0.655.
CCN1CCN(CC(O)COc2ccc(C(C)=O)cc2)CC1 (stereo unspecified) was read as LANA-H2B inh -1.6, UCH37 inh 9.0, B2AR ag -8.4, FGF22 binding inactive, ALR inh -34.7, HNF4A DNA FP 3.6 and E coli growth 0.765.
`Cc1c(NC(=O)C(C)OC(=O)c2cc(Cl)nc(Cl)c2)c(=O)n(-c2ccccc2)n1C` (stereo unspecified) gave LANA-H2B inh -0.9, UCH37 inh 3.4, B2AR ag -6.2, FGF22 binding inactive, ALR inh 1.0, HNF4A DNA FP 0.8 and E coli growth 0.713.
Screening CCCC[C@H]1COCCS(=O)(=O)N1Cc1ccccc1F returned LANA-H2B inh 2.5, UCH37 inh 1.6, B2AR ag 6.8, FGF22 binding inactive, ALR inh -1.3, HNF4A DNA FP -3.9 and E coli growth 0.785.
CN(C)c1ccc(C(=O)OCC(=O)NC2CCCCCC2)cc1 was read as LANA-H2B inh 0.8, UCH37 inh 2.1, B2AR ag -12.1, FGF22 binding inactive, HNF4A DNA FP -0.2 and E coli growth 0.732.
`CCOc1ccccc1NC(=O)CCS(=O)(=O)c1cccc2nsnc12` gave LANA-H2B inh 3.8, UCH37 inh 6.0, B2AR ag -1.1, FGF22 binding inactive, HNF4A DNA FP 2.1 and E coli growth 0.693.
Screening COc1ccc(CNc2nc(NCc3ccc(OC)cc3)n(S(C)(=O)=O)n2)cc1 returned LANA-H2B inh -1.5, UCH37 inh 5.6, B2AR ag -2.2, ALR inh -15.1, HNF4A DNA FP 3.5 and E coli growth 0.75.
For O=C(COC(=O)/C=C/C(=O)N1CCN(c2ccccc2)CC1)NCc1ccc(F)cc1 the results were LANA-H2B inh -2.0, UCH37 inh 3.3, B2AR ag -1.1, FGF22 binding inactive, ALR inh 67.4, HNF4A DNA FP -0.1 and E coli growth 0.695.
`O=C(NC(=S)Nc1ccccc1N1CCCC1)c1cccs1` gave LANA-H2B inh -6.3, UCH37 inh 5.7, B2AR ag -1.9, FGF22 binding inactive, ALR inh 0.5, HNF4A DNA FP -2.4 and E coli growth 0.654.
For Cc1ccc(CNC(=O)Cn2c(=O)c3sccc3n(Cc3ccc([N+](=O)[O-])cc3)c2=O)cc1 the results were LANA-H2B inh 3.3, B2AR ag -5.1, ALR inh -2.5 and HNF4A DNA FP -1.7.
For C=CCn1c(SCC(=O)NCCc2ccccc2)nnc1C1CC1 the results were LANA-H2B inh -2.4, UCH37 inh 4.1, B2AR ag -3.4, FGF22 binding inactive, ALR inh -3.3, HNF4A DNA FP 0.5 and E coli growth 0.711.
For CC(NC(=O)C1CC1)c1ccc(-c2ccccc2)cc1 (stereo unspecified) the results were LANA-H2B inh 9.2, UCH37 inh 7.7, B2AR ag 3.3, FGF22 binding inactive, ALR inh -2.4, HNF4A DNA FP 0.5 and E coli growth 0.675.
Screening COC(=O)c1ccc(NC(=O)Nc2ccccc2C)cc1 returned LANA-H2B inh 0.5, UCH37 inh 0.6, B2AR ag 15.2, FGF22 binding inactive, ALR inh -3.6, HNF4A DNA FP -3.1 and E coli growth 0.652.
`Cc1ccc(S(=O)(=O)NC(C(=O)N2CCOCCOCCOCC2)c2ccccc2)cc1` (stereo unspecified) gave LANA-H2B inh -4.9, UCH37 inh 0.4, B2AR ag 1.8, ALR inh -0.9, HNF4A DNA FP -2.3 and E coli growth 0.649.
CCN(CC)c1ccc(/C=c2\sc3nc4ccccc4n3c2=O)c(O)c1 was read as B2AR ag 6.0, FGF22 binding inactive and HNF4A DNA FP -17.0.
`c1ccc(N=P(N2CCOCC2)(N2CCOCC2)N2CCOCC2)cc1` gave LANA-H2B inh 6.9, UCH37 inh 4.8, B2AR ag 0.5, ALR inh -13.2, HNF4A DNA FP -3.7 and E coli growth 0.669.
CC(Oc1ccc2ccccc2c1)C(=O)N/N=C/c1cccnc1 (stereo unspecified) was read as LANA-H2B inh 2.3, B2AR ag 5.3, FGF22 binding inactive, ALR inh -9.0 and HNF4A DNA FP 0.3.
`Cc1ccccc1-c1nsc(SCC(=O)Nc2ccc3c(c2)OCO3)n1` gave LANA-H2B inh -5.6, UCH37 inh 2.9, B2AR ag 1.2, ALR inh -9.2, HNF4A DNA FP -1.0 and E coli growth 0.736.
Screening CS(=O)(=O)N1CCN(Cc2ccc(C(F)(F)F)cc2)CC1 returned LANA-H2B inh -4.4, UCH37 inh 1.1, B2AR ag 5.4, ALR inh -0.1, HNF4A DNA FP -2.3 and E coli growth 0.695.
Screening COc1ccc(-c2nc(CSCC(=O)NCc3ccc4c(c3)OCO4)c(C)o2)cc1OC returned LANA-H2B inh -1.3, UCH37 inh 3.4, B2AR ag 1.3, FGF22 binding inactive, ALR inh 99.2*, HNF4A DNA FP 0.6 and E coli growth 0.799.
For O=C(O)CCCC(=O)Nc1ccc(Br)cc1 the results were LANA-H2B inh -0.6, UCH37 inh 2.4, B2AR ag -6.5, ALR inh -2.6, HNF4A DNA FP 0.7 and E coli growth 0.668.

3 structures out of the list, sorted by molecular weight, largest number first:
For O=C(COC(=O)/C=C/C(=O)N1CCN(c2ccccc2)CC1)NCc1ccc(F)cc1 the results were LANA-H2B inh -2.0, UCH37 inh 3.3, B2AR ag -1.1, FGF22 binding inactive, ALR inh 67.4, HNF4A DNA FP -0.1 and E coli growth 0.695.
Screening COc1ccc(CNc2nc(NCc3ccc(OC)cc3)n(S(C)(=O)=O)n2)cc1 returned LANA-H2B inh -1.5, UCH37 inh 5.6, B2AR ag -2.2, ALR inh -15.1, HNF4A DNA FP 3.5 and E coli growth 0.75.
For CCc1nn(CC(=O)NCCN2CCN(C)CC2)c(=O)c2cc3occc3n12 the results were LANA-H2B inh -6.2, UCH37 inh -1.3, B2AR ag -3.9, ALR inh -6.8, HNF4A DNA FP 0.5 and E coli growth 0.746.
